Screening data deposited in PubChem by National Center for Advancing Translational Sciences (NCATS).
D2 ag = human D2 receptor agonism in beta-arrestin assay. P14416. DiscoveRx PathHunter D2 beta-arrestin, luminescence, 90 min; 100% = 57 uM dopamine signal. activation, % (test concentration not listed). 0.084% of 360,000 active. AID 624465; in the data active = activation above about 40%; inconclusive = about 15% to 40%; inactive = below about 15%; also: compound concentration not given in the record; the text of the record calls up to 30% inactive
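DiscoveRx PathHunter D2 beta-arrestin cells (2,100/well) attached overnight, then compound-stimulated 90 min at 37 C in HBSS/10 mM HEPES/0.1% Tween-20 buffer; beta-galactosidase complementation read by luminescence after 1 h at ambient temperature. Dopamine 57 uM final (EC100) as control.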
Sfp PPTase inh = inhibitors of Bacillus subtilis Sfp phosphopantetheinyl transferase; Biochemical Sfp PPTase activity, qHTS; 3.5% of 310,000 active; Potency, µM, for the others: max response, negative = inhibition, usual class: inhibitors; Q9F4F7; active = well fitted inhibition curve with a large enough effect; inconclusive = small, poorly fitted or top-dose-only effect, or another doubt; inactive = no such curve, though single readings can be large or run the other way;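 also: the enzyme is Sfp with the accession as filed and its product quenches rhodamine fluorescence; potency is read from the fitted curve at half-maximal effect; 0% = enzyme reaction without inhibitor and -100% = no enzyme wells; top concentration of the series not given in the record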
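Sfp 15 nM + cpd, 15 min RT; start w/ rhodamine-CoA 5 uM, BHQ-2-YbbR 12.5 uM (final); 50 mM Hepes pH 7.6, 10 mM MgCl2, 0.01% NP-40, 0.01% BSA; read 525/598 nm at 0 and 30 min.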
CtBP-E1A blk = inhibitors of CtBP/E1A interaction | AlphaScreen GST-E1A/His-CtBP binding, 1536-well; active compounds read low; control for the full effect not named in the record | activity change, % (test concentration not listed) | 0.49% of 340,000 active | AID 651724; in the data active means activity change below about -65%; inconclusive means about -30% to -65%; inactive means above about -30%; also: % is scaled to controls: 0 for no effect and ±100 for the full control effect
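Homogeneous bead-based format: GST-tagged E1A captured on glutathione donor beads, His-tagged CtBP on nickel acceptor beads; compounds precede bead addition by 2 h at 37 °C.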
Six1-Eya2 blk = Six1/Eya2 interaction inhibition; activity change, % (concentration not given with the values); AlphaScreen GST-Six1/His-Eya2 binding, biochemical; active compounds read low; control for the full effect not named in the record; Q15475+O00167; AID 651725; 0.56% of 360,000 active; in the data active = activity change below about -65%; inconclusive = about -30% to -65%; inactive = above about -30%; also: % is scaled to controls: 0 for no effect and ±100 for the full control effect
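Homogeneous AlphaScreen proximity assay pairing GST-Six1 with His-tagged Eya2 (added as 5X mix: 250 nM and 500 nM) in 50 mM Tris pH 8.0, 300 mM NaCl, 1 mM TCEP. Glutathione donor and nickel acceptor beads; 1 h, 37 °C, dark.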
D2 PAM = human D2 receptor positive allosteric modulation | P14416 | potentiation, % (no concentration beside the values) | DiscoveRx D2 beta-arrestin cells, luminescence, 90 min; 100% = 57 uM dopamine signal | 0.23% of 360,000 active; active = potentiation of 50% or more; inconclusive = 30% to 50%; inactive = 30% or less;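 also: compound concentration not given in the record; tested on top of an EC20 dose of dopamine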
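PathHunter beta-arrestin assay in DiscoveRx D2 cells. Compounds were added with an EC20 of dopamine (50 nM final) for 90 min at 37 deg C. Luminescence was read 1 h after detection reagent, with 57 uM dopamine as the EC100 control.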
TRPV1 PAM = enhances activation of the human vanilloid receptor TRPV1; TRPV1-expressing cells, Fluo-8 calcium influx, capsaicin EC20 potentiation; host cell line not named in the record; control for the full effect not named in the record; 0.02% of 320,000 active; potentiation, % at 8.33 µM; AID 540277; Q8NER1; active means potentiation above 80%; inconclusive means 30% to 80%; inactive means below 30%; also: 0% is about no effect
Target sequence (Q8NER1 whole entry, looked up): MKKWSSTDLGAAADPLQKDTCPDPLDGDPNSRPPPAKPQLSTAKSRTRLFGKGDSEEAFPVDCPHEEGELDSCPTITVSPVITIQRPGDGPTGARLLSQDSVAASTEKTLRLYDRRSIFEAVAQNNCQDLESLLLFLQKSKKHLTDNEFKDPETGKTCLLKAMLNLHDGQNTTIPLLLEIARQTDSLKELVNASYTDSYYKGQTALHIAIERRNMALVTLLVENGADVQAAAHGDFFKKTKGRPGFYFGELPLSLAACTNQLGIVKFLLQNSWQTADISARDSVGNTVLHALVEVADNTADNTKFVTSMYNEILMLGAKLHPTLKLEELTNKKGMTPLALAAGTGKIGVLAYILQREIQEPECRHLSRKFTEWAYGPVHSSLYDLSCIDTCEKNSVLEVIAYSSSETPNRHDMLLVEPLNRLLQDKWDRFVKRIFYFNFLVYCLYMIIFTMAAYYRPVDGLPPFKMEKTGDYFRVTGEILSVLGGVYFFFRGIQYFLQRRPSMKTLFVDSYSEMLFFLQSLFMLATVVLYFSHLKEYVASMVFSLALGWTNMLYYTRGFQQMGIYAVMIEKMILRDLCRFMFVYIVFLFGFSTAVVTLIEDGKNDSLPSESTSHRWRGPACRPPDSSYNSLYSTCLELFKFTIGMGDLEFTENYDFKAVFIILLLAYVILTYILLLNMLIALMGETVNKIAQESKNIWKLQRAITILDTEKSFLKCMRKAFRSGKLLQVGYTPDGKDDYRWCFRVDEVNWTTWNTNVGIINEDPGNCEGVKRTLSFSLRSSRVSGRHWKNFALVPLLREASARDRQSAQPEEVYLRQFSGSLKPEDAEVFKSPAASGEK
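Cells expressing TRPV1 were dye-loaded with Fluo-8 and read kinetically: 10 s baseline, 3 min after compound (agonist portion), then 2 min after EC20 capsaicin (allosteric enhancer portion). Calcium-bound dye fluorescence at 480/520 nm.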
PINK1 expr mod = modulators of PINK1 expression | 0.2% of 410,000 active | PINK1 immunofluorescence, high-content cytometry, 24 h | Potency, µM (titrated, usually from 76.6 µM), inactives show at the top dose activation (PINK1 increase), most hits filed as activators; active = well fitted activation curve with a large enough effect; inconclusive = small, poorly fitted or top-dose-only effect; inactive = flat fitted curve, though single readings scatter; cell line not stated here;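 also: potency is read from the fitted curve at half-maximal effect; % of control where 0% means no effect; nearly all actives have a fitted effect of over 65% in size; a mitochondrial uncoupler was the plate control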
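Decision-based qHTS: stable cells, 24 h exposure to five compound concentrations, CCCP as control. Fixed cells stained for PINK1 plus nuclear, mitochondrial and cell markers, cytometer read.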
* = called active by the depositor; ? = inconclusive; . = not tested or not shown; & = joins results of further samples; [ ] = remark or other dose.

Under each structure: D2 ag | Sfp PPTase inh | CtBP-E1A blk | Six1-Eya2 blk | D2 PAM | TRPV1 PAM | PINK1 expr mod
O=C(c1ccc(F)c(S(=O)(=O)N2CCOCC2)c1)N(c1ccccc1)c1ccccn1
    -1.5 | 3% | -7 | 8 | -1 | 1 | -0.6%
CCOC(=O)C1=C(COc2ccc(F)cc2Cl)NC(=O)NC1c1cc(C)ccc1C (centres undefined)
    0.6 | 24% | 3 | 2 | -2 | -31 | 2.1%[38.3 µM]
CCn1c(SCC(=O)NCc2cccs2)nnc1-c1ccco1
    -2.9 | 8% | 3 | 1 | -24 | 5 | -2.5%
CCN(CC)C(=O)CSc1nc(O)c(Cc2ccccc2)c(=O)n1-c1ccccc1C
    2.1 | -1% | 4 | 2 | -2 | -3 | 1.4%
C=CCOC(=O)C1=C[C@@H](c2ccc(Br)cc2)C[C@@H](OCc2ccc(CO)cc2)O1
    -4.0 | -4% | 0 | -10 | -8 | -11 | 3.2%
COC(=O)/C=C/CC(C)OS(N)(=O)=O (centres undefined)
    -3.9 | 21% | 6 | 4 | -9 | -10 | -2.0%
Cc1ccc(NC(=O)c2ccc(Cl)c(NC(=O)c3cccs3)c2)cc1
    -1.0 | 9% | -7 | 3 | -18 | -2 | 0.1%
COc1ccc(CCN2C(=O)C3C4CC(C5C(C(=O)N/N=C\c6ccc(Cl)cc6)=NOC45)C3C2=O)cc1OC (centres undefined)
    -3.9 | 14% | -12 | ? | -7 | 8 | -1.2%
Cc1ccc(NC(=O)CCNC(=O)Cn2cnc3ccccc3c2=O)cc1F
    -1.3 | -1% | 4 | 6 | -3 | -1 | -0.9%
FC(F)(F)Oc1ccc(NC(=S)Nc2ccc(OC(F)(F)F)cc2)cc1
    ? | ? | . | 4 | 2 | -10 | 16µM*
Cc1ccc(S(=O)(=O)NCCSCc2ccco2)cc1
    -3.1 | -1% | -4 | -1 | -5 | 8 | 2.5%
Cc1cc(Cl)c(S(=O)(=O)N2CCN(c3ccccn3)CC2)cc1OCC(N)=O
    2.5 | 4% | 5 | 0 | -7 | 9 | -1.3%
COc1ccc(N(C(C)C(=O)N/N=C/c2ccc(OC)c(OC)c2)S(C)(=O)=O)cc1 (centres undefined)
    -2.7 | 4% | -1 | -3 | 0 | 0 | -1.1%
Cc1ccc(C(C(=O)NC(C)(C)C)N(CC2CCCO2)C(=O)Cn2nnc(-c3ccc(C)o3)n2)cc1 (centres undefined)
    -1.8 | 56µM* | -1 | -2 | -1 | 11 | 8.4%[38.3 µM]
CC(=O)NC(NC(=S)Nc1ccc(N=Nc2ccccc2)cc1)C(Cl)(Cl)Cl (centres undefined)
    -0.1 | 23% | ? | -19 | -15 | 1 | 11%
NS(=O)(=O)c1cccc(NC(=O)CSc2ccccn2)c1
    -4.6 | ? | 1 | 0 | -15 | -9 | 1.7%
CNS(=O)(=O)c1ccc(NC(=O)c2ccccn2)cc1
    0.1 | -6% | -1 | 4 | -6 | -6 | -2.4%
O=C(COc1ccc(C(=O)c2ccccc2)cc1)NCC1CCCCC1
    -0.2 | 6% | 16 | 8 | -7 | -12 | 0.0%
Nc1c(C(=O)NCc2ccccc2)nnn1Cc1ccccc1
    -0.1 | -5% | 0 | 7 | -3 | -10 | 8.8%
CCCn1c(SCC(=O)NC2CCCCC2)nnc1-c1ccco1
    0.2 | 0% | -12 | 7 | 7 | 29 | 0.1%

Individual results from above.
CCOC(=O)C1=C(COc2ccc(F)cc2Cl)NC(=O)NC1c1cc(C)ccc1C (centres undefined) in D2 ag reads 0.6
CCN(CC)C(=O)CSc1nc(O)c(Cc2ccccc2)c(=O)n1-c1ccccc1C in D2 ag reads 2.1

(continued)
Under each structure: D2 ag | Sfp PPTase inh | CtBP-E1A blk | Six1-Eya2 blk | D2 PAM | TRPV1 PAM | PINK1 expr mod
CCOC(=O)C1CN(C(C)(C)C)C(=O)C1=O (centres undefined)
    0.3 | -14% | 2 | 7 | -6 | 8 | -0.2%
CCN(c1ccccc1)S(=O)(=O)c1ccc(Cl)c(NC(=O)CNC(C)c2ccccc2)c1 (centres undefined)
    -5.4 | . | -3 | -7 | -24 | . | 1.1%
Cc1ccc(C(=O)OCC(=O)c2ccc(Br)cc2)cc1S(=O)(=O)N1CCOCC1
    -3.3 | . | . | -1 | -8 | . | 2.2%
C=CCc1c(C)c(C#N)c2nc3ccccc3n2c1NCCN(C)C
    -4.4 | -1% | 3 | 2 | -21 | -4 | -2.9%
Cn1cc(CN(Cc2ccccn2)C[C@@H]2CCC(=O)N2)c(-c2ccccc2F)n1
    -2.8 | 79µM* | -18 | -13 | -4 | -1 | -0.3%
Cc1cccc(C)c1NC(=O)/C(C#N)=C/c1cccs1
    -1.1 | 6% | -1 | 0 | -6 | -1 | 1.1%
Nc1nc(SCC(=O)N2N=C(c3ccc(Cl)cc3)CC2c2ccco2)n[nH]1 (centres undefined)
    -6.3 | -25% | -3 | -6 | -8 | . | -2.2%
Cc1ccc(S(=O)(=O)Oc2ccc(/C=N/N=C3/NC(=O)C(CC(=O)O)S3)cc2)cc1[N+](=O)[O-] (centres undefined)
    -4.8 | 7% | 1 | -4 | -8 | -4 | 2.8%
COc1cccc(CC(=O)OCC(=O)NC(C)c2ccc(F)cc2)c1 (centres undefined)
    -5.1 | . | . | 0 | -6 | -27 | -0.5%
Cc1cn[nH]c1
    1.4 | 11% | 9 | -2 | -4 | 3 | 0.3%
COc1ccc(CCNC(=O)C(=O)NCCCN2CCOCC2)cc1
    -1.7 | -1% | 0 | -2 | -3 | -7 | 2.0%
CC(C)(C)C(=O)Nc1ccccc1C(=O)N1CCCC1
    -3.0 | 15% | 13 | 2 | -2 | -7 | -1.1%
O=C(CCCCCCCC(=O)NNC(=O)Nc1ccccc1)NNC(=O)Nc1ccccc1
    -7.1 | 7% | 0 | 1 | -6 | 16 | ?
O=C(NCc1ccccc1)Nc1cccn(Cc2cccc(F)c2)c1=O
    3.3 | 10% | 4 | 5 | 19 | -6 | 11%
C[C@@H]1CN([C@H](C)CO)S(=O)(=O)c2ccc(C#CC3CCCC3)cc2O[C@H]1CN(C)C(=O)Cc1ccccc1
    -3.9 | . | -5 | -6 | -3 | . | 9.5%
Cn1c(=O)[nH]c(=O)c2c1nc(N1CCCCC1)n2CCSc1nc2ccccc2o1
    -6.7 | 23% | 3 | 2 | -5 | . | 0.0%
Cc1ccc(N2CC(C(=O)Nc3ccc(S(=O)(=O)Nc4nccc(C)n4)cc3)CC2=O)cc1 (centres undefined)
    -3.0 | 22% | -11 | 2 | -3 | 2 | 0.2%
CN(C(=O)CSc1nncn1-c1ccccc1)C1CCS(=O)(=O)C1 (centres undefined)
    0.1 | . | -6 | 8 | -3 | 3 | 3.0%
Cc1nnc(SCC(=O)N/N=C/c2ccc(-c3ccc(C)c(Cl)c3)o2)s1
    0.6 | -27% | -14 | -15 | 16 | 0 | 6.9%
COc1ccc(S(=O)(=O)Nc2ccc(S(=O)(=O)N3CCCCC3)cc2)cc1C
    -1.5 | 18% | -2 | 1 | -4 | 9 | 3.7%[38.3 µM]
CCOC(=O)c1c(C)[nH]c(C(=O)OCC(=O)N2CCN(S(=O)(=O)c3ccccc3)CC2)c1C
    -0.3 | 2% | -10 | 2 | 13 | 1 | -2.3%
Cc1cc(F)ccc1NC(=O)CCc1c(C)nn(-c2ccc(N3CCCCC3)nn2)c1C
    -2.7 | 15% | 6 | -1 | 8 | -3 | -0.5%
CCOC(=O)c1oc2ccccc2c1COC(=O)CNC(=O)c1ccc(C)cc1
    0.8 | . | -9 | 6 | -8 | -25 | -3.9%
COc1ccc(C2/C(=C(/O)c3ccccc3)C(=O)C(=O)N2c2ccccn2)cc1 (centres undefined)
    -2.9 | 21% | 12 | -2 | -2 | 6 | 3.0%
COc1ccc(CNC(=O)c2cc3cc(OC)ccc3oc2=O)cc1
    11 | 19% | 8 | 2 | -8 | 12 | 11%&7.6%
CC(C)n1c(N2CCN(CC(=O)NCc3cccs3)CC2)nc2ccccc21
    -2.4 | -11% | 6 | -2 | -2 | -21 | 0.1%
CCN(CC)c1ccc(NC(=O)CSc2nc3ccccc3c(=O)n2-c2cc(S(=O)(=O)N(C)C)ccc2C)cc1
    3.3 | 7% | -27 | -22 | -2 | -9 | -0.6%
CCC(C)(C)NC(=O)CN(C(=O)CCC(=O)Nc1nccs1)c1ccc(C)cc1
    -5.9 | 30%[activator] | 8 | 3 | 0 | 4 | 2.9%
O=C(CSc1nc2ccccc2c(=O)n1CC1CCCO1)NCC1CCCO1 (centres undefined)
    -1.8 | 7% | 1 | 4 | 1 | 15 | 2.2%
Clc1cccc2sc(N3CCCCC3)nc12
    -2.3 | -24% | 29 | 20 | -10 | ? | -0.6%
COc1ccc(S(=O)(=O)N2CCOCC2)cc1NC(=O)c1c(-c2ccccc2)noc1C
    -0.3 | . | 0 | -11 | -1 | -5 | -0.8%
CC(C)CC(=O)NC(=S)Nc1ccccn1
    -0.7 | -27% | 6 | 2 | 6 | ? | -2.8%
COc1ccc(NC(=O)/C=C/c2ccc(Br)o2)cn1
    -3.0 | 25µM* | 5 | -26 | -8 | -5 | -1.9%
O=C(c1cccnc1)N1CCC(Oc2ccc(C(=O)N3CCCC(O)C3)cc2)CC1 (centres undefined)
    -6.2 | 16% | -3 | 6 | -1 | 5 | 1.4%
Cc1ccc(C(=O)C(=S)N2CCOCC2)cc1
    -3.9 | -5% | 0 | 13 | -12 | 3 | -0.8%
COc1ccc(C(=O)Nn2c(C)nc3ccccc3c2=O)cc1
    -1.1 | 7% | . | 0 | -18 | -12 | 0.1%
COc1ccc(-n2cc3ccc([N+](=O)[O-])cc3n2)cc1
    4.0 | -15% | -1 | -12 | 1 | 7 | 0.1%
CCN(CC)CCN1c2ccccc2Sc2ccccc21
    -3.7 | -16% | -20 | -14 | -42 | 10 | -2.7%
CC(=O)Oc1cccc(N2C(=O)C3CC=CCC3C2=O)c1 (centres undefined)
    -1.0 | 13% | 1 | 0 | 8 | 1 | 3.1%
COc1cc(C2C(C(=O)/C=C/c3ccccc3)=C(O)C(=O)N2c2ccccn2)ccc1O (centres undefined)
    -3.7 | 14% | 5 | 8 | -6 | -3 | -1.7%
